MLL AF4-AF9 inh: blocks AF4 peptide binding to human AF9; AlphaScreen, biotin-AF4 peptide binding to FLAG-AF9; AID 651704; 350,000 tested, 0.47% active; inhibition, % at 10 µM; P42568;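 active = every replicate reaching a set inhibition limit, whatever the replicate mean, cut at about 25% in these data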;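 also: 0% = plate neutral control median and 100% = total signal loss; the record names both 10 and 1 µM as test concentration; the first replicate is given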
Target sequence (P42568 whole entry, looked up): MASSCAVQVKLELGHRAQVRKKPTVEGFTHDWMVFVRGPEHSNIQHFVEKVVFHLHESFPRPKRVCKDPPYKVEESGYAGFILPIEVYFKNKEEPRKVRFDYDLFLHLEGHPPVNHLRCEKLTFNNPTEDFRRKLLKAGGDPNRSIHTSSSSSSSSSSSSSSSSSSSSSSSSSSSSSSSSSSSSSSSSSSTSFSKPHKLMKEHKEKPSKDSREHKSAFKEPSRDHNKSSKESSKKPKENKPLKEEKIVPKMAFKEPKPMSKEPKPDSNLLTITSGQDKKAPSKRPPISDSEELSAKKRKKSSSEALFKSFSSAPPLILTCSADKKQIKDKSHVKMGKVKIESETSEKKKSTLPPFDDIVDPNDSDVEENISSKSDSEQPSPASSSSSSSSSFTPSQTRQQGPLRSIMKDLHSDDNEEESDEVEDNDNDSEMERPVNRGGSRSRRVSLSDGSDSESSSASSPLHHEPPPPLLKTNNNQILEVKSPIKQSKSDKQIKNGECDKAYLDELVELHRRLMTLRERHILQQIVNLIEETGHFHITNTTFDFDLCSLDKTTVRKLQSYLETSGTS
Ecoli rRNA inh: inhibits bacterial ribosomal RNA function over humanized ribosomes; GFP signal change (wild-type ribosome), % (test concentration not listed); E. coli WT GFP vs humanized-ribosome RFP mutants, fluorescence, 24 h; hits give low values; DMSO median 0, no signal -100; 350,000 tested, 1.6% active; AID 720706;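 active = significant combined selectivity score with lowered wild-type GFP, culture density cut under 30%, mutant RFP and density less affected; inactive = any of these conditions unmet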; also: one replicate is shown; some compounds called inactive have numbers as strong as hits
Ecoli rRNA inh OD600: further read-out of Ecoli rRNA inh, marked with its call; OD600 change, %; measured here: OD600 growth;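 optical density of the mix in the first replicate; 0 = DMSO median and -100 = no signal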
Ecoli rRNA inh RFP: further read-out of Ecoli rRNA inh, marked with its call; RFP signal change, %; measured here: RFP humanized mutant strains;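 first replicate; 0 = DMSO median and -100 = no signal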
Numbers without * were called inactive. Not all compounds are listed (hit frequency here may not be typical).

Structure | MLL AF4-AF9 inh | Ecoli rRNA inh | Ecoli rRNA inh OD600 | Ecoli rRNA inh RFP
C[C@@H]1CN([C@H](C)CO)C(=O)c2cc(NC(=O)Nc3ccc4c(c3)OCO4)ccc2O[C@H]1CN(C)Cc1ccc(Oc2ccccc2)cc1 | 6.7 | 3 | 11 | -0.1
CC(C)C[C@@H]1COc2cccc(N3CCC[C@H]3CO)c2S(=O)(=O)N1 | 1.0 | 0 | 2 | 4.0
COc1ccc2c3c([nH]c2c1)[C@H](CO)N(C(=O)Nc1cccc(F)c1)CC31CN(S(=O)(=O)c2ccccc2)C1 | 0.9 | -7 | -2 | 5.7
Cc1noc(C)c1NC(=O)Nc1cccc2c1O[C@H](CN(C)Cc1ccc(C(=O)Nc3ccccc3N)cc1)[C@H](C)CN([C@H](C)CO)C2=O | 2.1 | 0 | 1 | -1.2
O=C(C[C@@H]1C=C[C@H](NC(=O)CC2CC2)[C@@H](CO)O1)NCc1ccc(Cl)cc1 | -9.1 | -5 | -6 | 2.9
CC(=O)NCCNc1nc2cc(-c3ccc(C)cc3)sc2c(=O)n1C | 2.0 | -6 | -4 | -6.8
Cc1noc(C)c1NC(=O)Nc1ccc2c(c1)C(=O)N([C@@H](C)CO)C[C@H](C)[C@@H](CN(C)C(=O)Nc1ccc(C(F)(F)F)cc1)OCCCC[C@H](C)O2 | 3.5 | 0 | 12 | 0.6
CCCC#Cc1ccc([C@H]2[C@H]3CN(Cc4cncnc4)CCCCN3[C@H]2CO)cc1 | -0.4 | 6 | 2 | 0.2
COCC(=O)N1[C@@H](C#N)[C@@H](c2ccc(-c3cccc(F)c3)cc2)[C@@H]1CO | 0.3 | 3 | -10 | 2.8
CS(=O)(=O)Cc1nc2ccccc2n1CC(=O)Nc1cccc(S(=O)(=O)N2CCCC2)c1 | 0.1 | -14 | -8 | -3.3
CC(=O)N(C)C[C@H]1Oc2ncc(C#Cc3cccc(F)c3)cc2C(=O)N([C@@H](C)CO)C[C@H]1C | 1.8 | 0 | -4 | -1.5
C[C@@H]1CN([C@@H](C)CO)C(=O)c2cc(NC(=O)Nc3ccc4c(c3)OCO4)ccc2O[C@@H]1CN(C)C(=O)Nc1ccc2c(c1)OCO2 | 2.7 | 0 | 10 | 3.7
COc1cccc(-c2cnc3c(c2)C(=O)N([C@@H](C)CO)C[C@@H](C)[C@H](CN(C)Cc2cccnc2)O3)c1 | -0.2 | -1 | 12 | -0.9
COc1ccccc1CNC(=O)C1CCCN1S(=O)(=O)c1ccc2c(c1)C(C)(C)C(=O)N2C (configuration not stated) | -0.5 | 2 | 7 | 3.3
O=C(CN1CCOCC1)N1CCCCN2[C@@H](CO)[C@@H](c3ccc(Br)cc3)[C@@H]2C1 | -1.9 | 4 | 2 | -5.4
Cn1c(=S)c2[nH]c(SCCC(C)(C)C)nc2n(C)c1=O | -9.1 | 12 | 14 | -1.4
CN1C(=O)c2cc(NC(=O)c3cccc(F)c3)ccc2OC[C@H]2O[C@H](CC(=O)NCc3ccccc3Cl)CC[C@H]21 | 0.2 | -1 | -10 | -2.2
CCCNC(=O)N1CC2(C1)[C@@H](c1ccccc1)[C@@H](CO)N2C(=O)CC1CC1 | -1.3 | -1 | 3 | -2.1
C[C@H](CO)N1C[C@H](C)[C@H](CN(C)Cc2ccc(-c3ccccc3)cc2)Oc2ccc(NC(=O)c3ccncc3)cc2CC1=O | 5.2 | -6 | -31 | 12
C[C@H]1CN([C@@H](C)CO)C(=O)c2cc(-c3ccncc3)cnc2O[C@@H]1CN(C)Cc1cccnc1 | -3.0 | 2 | 10 | -3.6
COc1ccc(-c2cc3c(c4c2ccn4C)C2CCC3C2)cc1F (configuration not stated) | 8.4 | 1 | -14 | 6.2
CN(Cc1nc2ccccc2c(=O)[nH]1)C(=O)c1cc(-c2ccc(Br)cc2)nc2ccccc12 | 0.8 | 7 | 1 | 0.3
C[C@@H](NC(=O)C[C@H]1C[C@@H]2c3cc(NC(=O)C4CCC4)ccc3O[C@@H]2[C@H](CO)O1)c1ccccc1 | 0.9 | 1 | 2 | -1.9
CO[C@@H]1CN(C)C(=O)c2cc(NS(=O)(=O)c3ccccc3F)ccc2OC[C@@H](C)NC[C@@H]1C | -2.5 | 4 | 7 | 2.4
C[C@@H]1CCc2cnnn2COC[C@@H](c2ccccc2)NC1=O | 2.9 | 6 | 14 | -5.7

The closing 3 compounds of the section before open the next one.
Structure | MLL AF4-AF9 inh | Ecoli rRNA inh | Ecoli rRNA inh OD600 | Ecoli rRNA inh RFP
C[C@@H](NC(=O)C[C@H]1C[C@@H]2c3cc(NC(=O)C4CCC4)ccc3O[C@@H]2[C@H](CO)O1)c1ccccc1 | 0.9 | 1 | 2 | -1.9
CO[C@@H]1CN(C)C(=O)c2cc(NS(=O)(=O)c3ccccc3F)ccc2OC[C@@H](C)NC[C@@H]1C | -2.5 | 4 | 7 | 2.4
C[C@@H]1CCc2cnnn2COC[C@@H](c2ccccc2)NC1=O | 2.9 | 6 | 14 | -5.7
Nc1cccc(-c2cccc3nncn23)c1 | -1.9 | 6 | 10 | -2.1
C[C@H]1CCCCO[C@@H](CN(C)C(=O)NC2CCCCC2)[C@@H](C)CN([C@@H](C)CO)C(=O)c2cc(NC(=O)c3ccncc3)ccc2O1 | -1.6 | -1 | -4 | 0.1
CCCCCNC(=O)C(c1cccc2ccccc12)n1c(=O)c(-c2ccco2)nc2ccccc21 (configuration not stated) | 2.1 | -3 | 9 | 16
Oc1ccc(C=NNc2ccccn2)c(O)c1 | 42* | -8 | 3 | -3.0
CC(=O)c1ccc(NC(=O)CN2CCC(NC(=O)c3ccccc3C)CC2)cc1 | -3.2 | 7 | 14 | -1.4
C[C@@H]1CN([C@H](C)CO)C(=O)c2cccc(NC(=O)Nc3ccc(C(F)(F)F)cc3)c2O[C@H]1CN(C)C(=O)NC1CCCCC1 | 1.2 | 1 | -8 | -1.0
CC1(C(=O)NS(=O)(=O)c2ccccc2Cl)CCN1C(=O)Cc1ccccc1 (configuration not stated) | 0.4 | 14 | 19 | 0.3
CCOC(=O)[C@]12CCCC=C1N(Cc1ccccc1)C(=O)[C@H](CC(=O)NCCc1ccccc1OC)C2 | 2.8 | -21* | -16* | 4.2*
C#CCOCCOCCOCCNc1nc(N2CCN(C(=O)[C@H](CCCCN)n3cc(CN)nn3)CC2)nc(N2CCN(C(=O)[C@H](CCCCN)n3cc([C@@H](N)CC(N)=O)nn3)CC2)n1 | 40* | 6 | 14 | 6.0
C[C@H]1CN([C@@H](C)CO)C(=O)c2cccc(NC(=O)Nc3ccc(C(F)(F)F)cc3)c2O[C@@H]1CN(C)Cc1ccc(C(=O)Nc2ccccc2N)cc1 | -1.1 | -1 | -2 | -3.6
CCS(=O)(=O)Nc1ccc2c(c1)C(=O)N(C)[C@@H]1CC[C@H](CC(=O)N3CCCCC3)O[C@H]1CO2 | -1.2 | 2 | 3 | -0.2
CNC(=O)C[C@@H]1CC[C@@H]2[C@@H](COc3ccc(NC(=O)c4ccc(OC)cc4)cc3C(=O)N2C)O1 | 0.3 | 0 | -3 | 2.7
COc1ccc(NC(=O)N(C)C[C@H]2OCc3ccccc3-c3ccccc3C(=O)N([C@@H](C)CO)C[C@H]2C)c(OC)c1 | -0.9 | -2 | 2 | 1.8
O=C(C[C@@H]1CC[C@@H](NC(=O)CN2CCOCC2)[C@H](CO)O1)NC1CCCCC1 | -0.6 | 4 | -2 | -1.3
Cc1noc(C)c1S(=O)(=O)N(C)C[C@@H]1Oc2ccc(NS(=O)(=O)c3ccc(F)cc3)cc2CC(=O)N([C@@H](C)CO)C[C@H]1C | 10.0 | 0 | -1 | -0.8
C[C@H](NC(=O)C[C@H]1CC[C@H]2[C@@H](COC[C@@H](O)CN2C(=O)Nc2cccc(F)c2)O1)c1ccccc1 | -5.5 | -18 | -16 | -0.9
O=C(Nc1cccc(Cl)c1)N[C@@H]1CC[C@H](CCNC(=O)C2CCOCC2)O[C@H]1CO | -0.6 | -2 | 8 | 4.1
CN1C(=O)c2cc(NS(C)(=O)=O)ccc2OC[C@@H]2O[C@@H](CC(=O)NCc3ccccc3)CC[C@@H]21 | -0.6 | 3 | 2 | -1.0
COCC(=O)Nc1ccc2c(c1)C(=O)N(C)C[C@H](OC)[C@H](C)CN(CCc1ccccc1)[C@H](C)CO2 | 4.8 | 3 | 2 | 0.6
COc1ccccc1C#Cc1ccc2c(c1)O[C@@H](CN(C)Cc1cncnc1)[C@H](C)CN([C@@H](C)CO)S2(=O)=O | 0.7 | -12 | -14 | 10
CN(C)C(=O)C[C@@H]1CC[C@H]2[C@H](COc3ccc(NC(=O)C4CC4)cc3C(=O)N2C)O1 | -1.8 | 1 | 3 | -4.2
O=C(C[C@H]1CC[C@@H]2[C@H](COC[C@H](O)CN2Cc2cocn2)O1)NCc1cccc(F)c1 | 0.0 | 0 | 0 | -0.5
C[C@@H]1CN([C@H](C)CO)C(=O)c2cc(NS(C)(=O)=O)ccc2O[C@@H]1CN(C)S(=O)(=O)c1ccc(F)cc1 | -2.4 | -2 | 2 | 1.7
C[C@@H](NC(=O)C[C@H]1C[C@@H]2c3cc(NS(C)(=O)=O)ccc3O[C@@H]2[C@@H](CO)O1)c1ccccc1 | -0.8 | 0 | -8 | -0.4
C[C@H](CO)N1C[C@H](C)[C@H](CN(C)Cc2cncnc2)Oc2cc(C3=CCCC3)ccc2S1(=O)=O | -1.1 | 0 | 7 | 0.4

(next part)
Every second line gives: MLL AF4-AF9 inh, Ecoli rRNA inh, Ecoli rRNA inh OD600, Ecoli rRNA inh RFP
CC(=O)Nc1cccc(-c2ccnc3c2CC(C)(C(=O)Nc2cccc(C(F)(F)F)c2)O3)c1 (configuration not stated)
    -2.8, -10, -60, 16
COC(=O)C[C@@H]1CC[C@@H]2[C@H](COc3ccc(NC(=O)c4cccc(Cl)c4)cc3C(=O)N2C)O1
    0.9, -3, -5, 1.1
COc1ccc2c3c(n(C)c2c1)[C@@H](CO)N(S(=O)(=O)c1ccc(C)cc1)CC31CCN(S(=O)(=O)c2ccc(C)cc2)CC1
    1.0, 4, 16, -4.6
O=C(CC(F)(F)F)N1C[C@@H]2[C@H](c3ccccc31)[C@H](CO)N2C(=O)CN1CCOCC1
    -0.3, 1, 2, -2.4
C[C@@H]1CN([C@H](C)CO)C(=O)c2cc(-c3ccncc3)cnc2O[C@H]1CN(C)C(=O)Cc1cccnc1
    -4.8, -4, 14, -4.0
O=C(C[C@@H]1C=C[C@@H](NC(=O)c2ccccc2)[C@@H](CO)O1)NCc1ccc(Oc2ccccc2)cc1
    0.3, -3, -10, -1.5
C[C@@H]1CCCCO[C@H](CN(C)C(=O)Nc2ccc3c(c2)OCO3)[C@@H](C)CN([C@@H](C)CO)C(=O)c2cc(NS(=O)(=O)c3cccs3)ccc2O1
    10, 0, -28, -0.5
C[C@@H]1CN([C@@H](C)CO)C(=O)Cc2cc(NC(=O)C3CC3)ccc2O[C@H]1CN(C)S(=O)(=O)c1ccccc1
    2.6, 0, 0, 0.3
CO[C@H]1CN(C)C(=O)c2cc(NC(C)=O)ccc2OC[C@H](C)N(S(=O)(=O)c2cn(C)cn2)C[C@@H]1C
    -1.4, 1, 3, 0.1
Cc1ccc(S(=O)(=O)N(C)C[C@H]2Oc3ccc(NS(=O)(=O)c4ccc(Cl)cc4)cc3C(=O)N([C@H](C)CO)C[C@H]2C)cc1
    1.2, -5, -13, -1.6
COc1ccc(S(=O)(=O)N(C)C[C@H]2OCCCC[C@H](C)Oc3ccc(NC(=O)Nc4cccc5ccccc45)cc3C(=O)N([C@@H](C)CO)C[C@H]2C)cc1
    -14, 0, 3, -0.9
CN1C[C@H]2[C@@H](c3ccccc31)[C@@H](CO)N2Cc1ccccc1Cl
    2.7, -10, -21, -0.4
O=C(C[C@@H]1CC[C@@H]2[C@H](COC[C@H](O)CN2S(=O)(=O)c2ccc(Cl)cc2)O1)NCC1CCCCC1
    16, -2, -13, 8.3
O=S1(=O)CC(N2CCN(Cc3ccccc3F)CC2)CN1Cc1cn(Cc2ccc(C(F)(F)F)cc2)nn1 (configuration not stated)
    -4.0, -15, -24, -2.3
CC1(C(=O)NS(=O)(=O)c2ccccc2)CCN1C(=O)CCc1ccc(Cl)cc1Cl (configuration not stated)
    -1.6, -2, 6, 1.4

Later entries.
Every second line gives: MLL AF4-AF9 inh, Ecoli rRNA inh, Ecoli rRNA inh OD600, Ecoli rRNA inh RFP
CCS(=O)(=O)Nc1ccc2c(c1)C(=O)N(C)C[C@H](OC)[C@H](C)CN(C(=O)C1CC1)[C@H](C)CO2
    0.0, 1, -6, 1.0
CC=Cc1ccc2n(c1=O)C[C@H]1[C@H](CO)[C@@H](C(=O)N3CCc4ccccc4C3)N[C@@H]21 (mixture of isomers)
    -0.6, 2, 3, 2.5
O=C(Cc1cccnc1)N1CC(=O)N2[C@H](CO)[C@@H](c3ccc(C#CC4CCCCC4)cc3)[C@@H]2C1
    6.0, -15, -36, 18
CN1C(=O)c2cc(NC(=O)Nc3cccc(Cl)c3)ccc2OC[C@@H]2O[C@H](CC(=O)NCCc3ccncc3)CC[C@@H]21
    1.5, -11, -17, 4.0
CN(C)CC(=O)N1CC(=O)N2[C@H](CO)[C@@H](c3ccc(-c4ccc(C(=O)N(C)C)cc4)cc3)[C@H]2C1
    0.8, 3, 3, -3.5
COc1ccc2c3c(n(C)c2c1)[C@@H](CO)N(C(=O)c1ccc(F)cc1)CC31CCN(C)CC1
    -3.9, 0, -4, -2.1
